# AID504770: E. coli YBA685 growth inhibition, screen for V. cholerae RctB inhibitors; E. coli YBA685 rctB-dependent plasmid, OD600 growth, 3 h; stronger effect = lower value; z-score (no concentration beside the values); actives 0.27% (n = 130,000); AID 504770;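 active = z-score under -2 on both plates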;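 note: wells of about 30 µL received 100 nL stock; score is relative to mean and SD of the test wells; the first replicate is given; strong numbers were not always called active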
# Ba CapD inh: blocks the Bacillus anthracis CapD enzyme; purified CapD enzyme, fluorescence intensity read-out; stronger effect = lower value; some hits fall short of the stated cut; z-score (no concentration beside the values); actives 0.23% (n = 140,000); AID 492967;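 active = z-score under -4 in either of two replicates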;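 note: stock transfer was 100 nL into about 40 µL; score is relative to mean and spread of the plate; one replicate is shown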
# Active calls of the source: *; nt = no result given.
SMILES,AID504770,Ba CapD inh
CCSc1nnc(-c2cccn(Cc3ccc(Cl)cc3Cl)c2=O)n1C,nt,73
CCOC(=O)c1cnc2ccccc2c1Nc1cccc(C)c1,nt,-0.47
Cc1nc(N2CCN(c3ccccn3)CC2)c2c(C)c(C(=O)NC(C)c3ccccc3)sc2n1 (stereo not given),nt,0.16
CCN1C(=O)/C(=c2\s/c(=C3\Sc4ccc(OC)cc4N3C)c(=O)n2Cc2ccccc2)N(C)C1=S,-0.2,nt
NC(=S)c1cccc(Br)c1,-0.85,nt
CCN1C(=O)/C(=C2\Sc3ccc(OC)cc3N2C2CCCCC2)SC1=S,nt,0.11
CN1CCN(S(=O)(=O)c2ccc(NC(=O)c3ccc(Br)s3)cc2)CC1,0.2,-0.11
CC(=O)Oc1ccccc1-c1nc2s/c(=C3\C(=O)N(CC(N)=O)c4ccccc43)c(=O)n2n1,nt,-0.54
COc1cc(OC)c(NS(=O)(=O)c2cc(-c3cc(C)no3)ccc2C)cc1Cl,-0.85,-0.68
Cc1[nH]c2ccccc2c1-c1nc2ccccc2[nH]c1=O,-0.25,nt
COc1ccc(/C=C2\C(=N)N3N=C(N4CCOCC4)SC3=NC2=O)cc1,0.4,-1.1
CCCS(=O)(=O)c1c(S(=O)(=O)CCC)c2cnccn2c1C(=O)c1ccc(OC)cc1,nt,-0.5
CC12CCC(CC1=NNC(=O)CSc1nc3ccccc3o1)C2(C)C (stereo not given),-0.4,nt
NS(=O)(=O)c1ccc(Sc2ccc(Cl)cc2)c([N+](=O)[O-])c1,nt,-0.43
CCc1ccc2c(CC(=O)O)coc2c1,0.45,nt
Cc1cc(C(=O)Nc2cccc(C(F)(F)F)c2)n[nH]1,0.45,-1.1
C=Cc1ccc2c(c1)N(C)C(=C)S2,-0.7,-0.32
O=S(=O)(Nc1ccccc1C(F)(F)F)c1ccc2c(c1)CCO2,-0.35,0.8
Cn1c(=N)sc2ccccc21,-0.9,nt
Cc1ccc(CCNC(=O)c2cc(C)[nH]n2)cc1,0.65,-0.12
CN(C(=O)N1CCN(c2ccccn2)CC1)c1ccccc1,0.9,13
CCOc1ccc2nc(NC(=O)c3cccn(OCc4ccccc4)c3=O)sc2c1,-0.15,-0.08
N#Cc1c(C(F)(F)F)cc(-c2cccs2)oc1=S,-0.35,2.4
C/C(=N\O)c1ccc(Sc2ccccc2)cc1,-0.25,0.18
N#CCCN1CCn2c3c(c4cc(C5CCCCC5)ccc42)CCCC31 (stereo not given),nt,0.54
Cc1cc(NC(=O)CCOc2ccccc2)no1,0.8,0.51
CCOC(=O)c1ccc2nc(/N=C/NOC(=O)c3cccs3)sc2c1,1.8,70
Cc1ccc2cccc(OCC(N)=O)c2n1,-0.4,nt
Cc1ccc(S(=O)(=O)N(C)c2ccc(OCC(=O)OCC(N)=O)cc2)cc1,-0.25,nt
O=C1CCC(c2ccc(Cl)cc2)=NN1,nt,0.39
CCN(CC)Cc1cc(C(=O)O)oc1C(C)(C)C,1.6,nt
COC1=C(OC)C2(C=CC1=O)CC(C)(C)N=C2SC (stereo not given),-0.7,0.52
CCSCCOC(=O)C1=C(C)NC2=C(C(=O)CC(c3ccc(OC)cc3)C2)C1c1ccccc1OC (stereo not given),nt,7.5
O=C(COC(=O)Cc1ccc(Cl)cc1Cl)NC1CC1,-0.2,-0.36
CCOC(=O)Cn1ccc2cc(S(=O)(=O)N3CCCC3)ccc21,-0.65,0.93
COC(=O)c1ccc(N=Cc2nc(-c3ccccc3Br)oc2O)cc1,nt,-0.15
COCc1cc(C)nc2sc(C(O)c3ccccc3)c(NC(=O)c3ccccc3)c12 (stereo not given),nt,-0.26
N#CCON1C(=O)c2ccccc2C1=O,0.25,0.64
CC(C)C(c1nnnn1C1CCCC1)N1CCN(C(=O)c2ccco2)CC1 (stereo not given),-0.65,nt
COC(=O)c1ccccc1SCC(=O)Nc1ccc(N2CCOCC2)cc1,nt,-0.57
COc1ccc(C=C2C(=O)NC(=O)NC2=O)cc1Oc1ccc([N+](=O)[O-])cc1[N+](=O)[O-],nt,-0.68
Cc1cc2[nH]c(=O)c(=O)[nH]c2cc1S(=O)(=O)N(CC(C)C)CC(C)C,1.1,13
O=C(N/N=C/c1c[nH]c2cc(OCc3ccccc3)ccc12)c1cccc(F)c1,nt,-0.67
COc1cc(CN2CCN(CCOC(=O)NNC(=O)c3ccccc3NC(=O)c3ccccc3Cl)CC2)cc2c1OCO2,nt,-0.1
O=C(CN1C(=O)c2ccccc2C1=O)c1ccccc1,nt,-0.49
CC(c1ccccc1)n1c(CCn2ncc3ccccc3c2=O)n[nH]c1=S (stereo not given),-0.8,-1.3
CC1Cc2ccccc2N1C(=O)CSc1nnc2n1C(C)(C)Cc1ccccc1-2 (stereo not given),-0.45,nt
Cc1ccccc1-c1nnc2n1C(C)(C)Cc1ccccc1-2,1.9,0.01
CN(CCOc1ccccc1Cl)Cc1ccccc1,0.2,nt
Cn1c(=O)c(C(=O)N2CCN(Cc3ccccc3)CC2)cc2cccnc21,-0.3,nt

# Following part:
SMILES,AID504770,Ba CapD inh
COc1ccc(NC(=O)C2OC3OC(C)(C)OC3C3OC(C)(C)OC23)cc1Cl (stereo not given),nt,-0.29
CCC(C)(C)C(=O)Nc1cc(C)cc(C)c1,-0.5,-0.13
O=C(CSc1nnc(-c2ccc3c(=O)n4c(nc3c2)CCCCC4)o1)C12CC3CC(CC(C3)C1)C2,0.3,nt
C=CCNC(=O)c1ccc(Cl)c(S(C)(=O)=O)c1,0,nt
CCCN1CCCc2cc(CN(CCCN3CCOCC3)C(=O)Nc3ccccc3)ccc21,-0.9,1.1
Brc1ccc(-c2csc(N/N=C/c3ccco3)n2)cc1,0.7,nt
O=C(COc1ccc2ccc(=O)oc2c1)Nc1ccc2c(c1)OCCCO2,0.25,nt
Cc1cc(C(F)(F)F)nc(/N=C(\N)Nc2ccc(Cl)cc2)n1,-1.8,-0.35
CCN(CC)C(=O)C1CCN(Cc2ccc(Br)cc2)CC1,-0.35,-0.45
Cc1cc(Oc2ccc(C(F)(F)F)cc2[N+](=O)[O-])c2c(Cl)ccc(C)c2n1,nt,-0.28
O=C(COc1ccc(C2Nc3cccc4cccc(c34)N2)cc1)Nc1ccccc1,1.1,-0.51
CCCCc1nn2c(=O)cc(CSc3nnc(NC(=O)c4ccco4)s3)nc2s1,0.55,-0.18
O=C(C1=C(O)C(=O)N(Cc2ccccc2)C1c1ccco1)c1ccco1 (stereo not given),-0.5,nt
COc1cc(OC)nc(C(c2ccccc2)N2CCCCC2)n1 (stereo not given),nt,-0.78
CCOc1cc2c(cc1CNC(=O)C1CC1)OC(C)C2 (stereo not given),0.15,nt
COc1cccc(CSC2=C(C#N)[C@H](c3ccccc3[N+](=O)[O-])C(C(C)=O)=C(C)N2)c1,nt,-0.58
Cc1nn(-c2ccccc2)nc1C(=O)N(C)c1nnc(C(F)(F)F)s1,-0.4,8.6
N#CCC(=O)NCc1ccc(Cl)cc1,-0.2,nt
CCOC(=O)NC(=S)c1ccc[nH]1,-1.8,-4.1
CC(=O)NCCNC(=O)OCCc1ccccc1Cl,nt,-0.46
CCN1CN=C(Nc2nc(C)c3cc(C)ccc3n2)NC1,-0.8,-0.96
CCC(C)NS(=O)(=O)c1cccs1 (stereo not given),-0.8,18
CCn1c(=O)c2cc(C(=O)N(Cc3ccccc3)C(C)C)sc2c2ccccc21,-0.05,0.79
c1ccc(CC2CNc3ccccc3CN2)cc1 (stereo not given),-0.4,nt
O=C(O)c1cc(/C=N/n2cnnc2)c2c(c1)COCO2,0.15,12
O=C(NCCCN1CCc2ccccc21)c1ccc2ccccc2n1,nt,0.45
CC1CCN(c2nc(Cl)nc(NCc3cccnc3)n2)CC1,nt,-0.14
O=C(O)C12CC3CC(C1)CC(c1ccc([N+](=O)[O-])cc1)(C3)C2,nt,-0.41
NCCc1ccc(O)cc1,0.25,-0.48
CC(=O)C1=C(C)NC(SCC(=O)c2cc(Cl)ccc2Cl)=C(C#N)C1c1sccc1C (stereo not given),nt,-1.1

# Part of the list above in order of molar mass, lowest first:
SMILES,AID504770,Ba CapD inh
NCCc1ccc(O)cc1,0.25,-0.48
CCOC(=O)NC(=S)c1ccc[nH]1,-1.8,-4.1
N#CCC(=O)NCc1ccc(Cl)cc1,-0.2,nt
CCC(C)NS(=O)(=O)c1cccs1 (stereo not given),-0.8,18
c1ccc(CC2CNc3ccccc3CN2)cc1 (stereo not given),-0.4,nt
O=C(O)c1cc(/C=N/n2cnnc2)c2c(c1)COCO2,0.15,12
CCOc1cc2c(cc1CNC(=O)C1CC1)OC(C)C2 (stereo not given),0.15,nt
CCN1CN=C(Nc2nc(C)c3cc(C)ccc3n2)NC1,-0.8,-0.96
CC(=O)NCCNC(=O)OCCc1ccccc1Cl,nt,-0.46
O=C(O)C12CC3CC(C1)CC(c1ccc([N+](=O)[O-])cc1)(C3)C2,nt,-0.41
COc1cc(OC)nc(C(c2ccccc2)N2CCCCC2)n1 (stereo not given),nt,-0.78
CC1CCN(c2nc(Cl)nc(NCc3cccnc3)n2)CC1,nt,-0.14
O=C(NCCCN1CCc2ccccc21)c1ccc2ccccc2n1,nt,0.45
CCn1c(=O)c2cc(C(=O)N(Cc3ccccc3)C(C)C)sc2c2ccccc21,-0.05,0.79
CCCCc1nn2c(=O)cc(CSc3nnc(NC(=O)c4ccco4)s3)nc2s1,0.55,-0.18
CC(=O)C1=C(C)NC(SCC(=O)c2cc(Cl)ccc2Cl)=C(C#N)C1c1sccc1C (stereo not given),nt,-1.1

# The list continues.
SMILES,AID504770,Ba CapD inh
Cc1cc2n(n1)C(c1cc(C(C)(C)C)c(O)cc1O)Nc1c(C)cccc1-2 (stereo not given),0.3,66
Cn1c(=O)c(C2(O)C(=O)NC(=O)NC2=O)c(O)c2ccccc21,-0.1,nt
CSc1n[nH]c(=O)n1-c1cccc(Cl)c1,0.4,1
O=C(NC1CCCC1)C1CCN(C(=O)c2cc3sccc3n2Cc2ccc(F)cc2)CC1,0.45,-0.21
CN1CC(C(=O)Nc2ccc3c4c(cccc24)CC3)CC1=O (stereo not given),-0.5,4.7
COc1cc(O)oc1C=Nc1ccc(C(F)(F)F)cc1,0.85,3.6
COc1ccc(NC(=O)CSC2=NC(=O)CC(C)=N2)cc1,-0.9,-0.11
CC1(C)CC(=O)C2=C(C1)OC1=C(C(=O)CC(C)(C)C1)C2c1cccc([N+](=O)[O-])c1,nt,-0.42
O=[N+]([O-])c1ccc(Sc2ccccc2)c([N+](=O)[O-])c1,nt,0.025
CCC(C)C(NCc1cccc(Br)c1)C(=O)O (stereo not given),0.55,-0.14
CCOC(=O)N1CCc2c(sc(NC(=O)c3ccc(S(=O)(=O)N(C)C)cc3)c2C#N)C1,-1.9,nt
O=C(Nc1ccccc1C(=O)Nc1ccccc1)c1ccc(Cl)cc1,1.5,5.1
Cc1cc(C)cc(NC(=O)NC2CCN(c3nc(C)cc(C)n3)CC2)c1,-0.2,-0.55
O=[N+]([O-])c1cc(Nc2ncnc3ccccc23)cc(Oc2ccccc2)c1,nt,-0.46
CCOc1cc(-c2ccccc2)[nH]c(=S)n1,nt,-0.47
CCc1nnc(NC(=O)CN2C(=O)/C(=C\c3cc(OC)c(OC)c(OC)c3)SC2=S)s1,nt,-0.06
CCOC(=O)c1ccc(N2N=C(C(F)(F)F)/C(=C/c3cc(Cl)c(O)c(OC)c3)C2=O)cc1,nt,-0.22
COc1ccc(-c2nc3c([nH]2)CCc2nonc2-3)cc1,-0.7,nt
COc1ccc(NC(=O)/C=C/c2ccc(OC)c(OC)c2)cn1,-0.7,nt
COc1cc2c(c([N+](=O)[O-])c1)NC(c1ccccc1)CC2c1ccccc1 (stereo not given),nt,0.35
CC(C)(C)S(=O)(=O)/C(C#N)=C/c1cc(C(F)(F)F)cc(C(F)(F)F)c1,-1.2,-0.34
COC(=O)c1ccc(CSc2nnc3n(Cc4ccc(C)cc4)c(=O)c4ccccc4n23)o1,-0.75,nt
Cc1ccc2c(NC(=O)C3CC3)cccc2n1,1.4,nt
Cc1nc2cc(C(=O)O)ccc2n1C,-0.3,nt
O=c1c(Cc2ccc(F)cc2)c(O)ccn1Cc1ccc(Cl)cc1Cl,nt,0.15
Cc1nc2nc[nH]n2c(=O)c1[N+](=O)[O-],nt,-1.2
c1ccc(-c2nc(N3CCCCCC3)c3ccccc3n2)cc1,1.1,2.3
O=C(c1cn(-c2ccccc2)nc1-c1cccs1)N1CCN(C2CCS(=O)(=O)C2)CC1 (stereo not given),0.45,nt
Cc1cccc(NCc2cn3ccccc3n2)c1,1.1,-0.44
CC(C)OC(=O)CSC1=C(C#N)C(c2ccccc2Cl)CC(=O)N1 (stereo not given),0.1,0.17
N#Cc1c(-c2ccccc2Cl)c(C#N)c2nc3ccccc3n2c1N,3.2,-0.095
N#Cc1c(NC(=O)c2ccco2)sc2c1CCCC2,1.1,nt
CSc1nc2ccccc2n1-c1ccccc1,-0.15,0.42
Cc1ccc(C(c2c(O)[nH]c(=S)[nH]c2=O)N2CCC(C)CC2)cc1 (stereo not given),-0.45,-0.21
COc1ccc(C(=O)NC2CCc3ccccc32)cc1 (stereo not given),nt,0.41
OC(CN1CCCCC1)Cn1c2ccc(Br)cc2c2cc(Br)ccc21 (stereo not given),nt,0.3
O=C(Cn1c(=O)c(C(F)(F)F)nc2ccccc21)N1CCc2ccccc21,0.2,27
Clc1ccc(C2=NCCc3sccc32)cc1,-0.8,-1.2
Cc1ccc(S(=O)(=O)CCSc2ccccc2)cc1,nt,0.49
O=C(CCC1CCCCC1)NC1=NCCS1,-0.45,0.58

# Two successive compounds already listed, quoted:
SMILES,AID504770,Ba CapD inh
N#Cc1c(-c2ccccc2Cl)c(C#N)c2nc3ccccc3n2c1N,3.2,-0.095
N#Cc1c(NC(=O)c2ccco2)sc2c1CCCC2,1.1,nt

# Other results follow.
SMILES,AID504770,Ba CapD inh
COc1ccc(/C(N)=N/O)cc1O,-0.75,-0.8
Cc1oc2ccccc2c1-c1ccc2ccccc2n1,1.1,22
CCN1C(=O)c2ccccc2Sc2ccc(NC(=O)N3CCc4ccccc43)cc21,0.5,3.1
CCOc1ccc(N(/C=C2\Sc3ccccc3C2=O)C(=O)c2cccc(Cl)c2)cc1,nt,-0.1
COC(=O)c1ccc2c(c1)NC(=O)CO2,0.75,0.67
